# c-Myc SMM: c-Myc (human) binding; calls only; AID 624141; small molecule microarray, His-c-Myc binding, anti-His fluorescence; P01106; 17,000 compounds, 1.5% hits;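 active = spot fluorescence over background with P-value below 7% in all four replicate spots, showing protein binding; compounds were printed on slides so no solution concentration is given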;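 note: score is binary with 100 for all four spots passing and 0 otherwise; about 2 pmol printed per array spot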
# Target sequence (P01106 whole entry, looked up): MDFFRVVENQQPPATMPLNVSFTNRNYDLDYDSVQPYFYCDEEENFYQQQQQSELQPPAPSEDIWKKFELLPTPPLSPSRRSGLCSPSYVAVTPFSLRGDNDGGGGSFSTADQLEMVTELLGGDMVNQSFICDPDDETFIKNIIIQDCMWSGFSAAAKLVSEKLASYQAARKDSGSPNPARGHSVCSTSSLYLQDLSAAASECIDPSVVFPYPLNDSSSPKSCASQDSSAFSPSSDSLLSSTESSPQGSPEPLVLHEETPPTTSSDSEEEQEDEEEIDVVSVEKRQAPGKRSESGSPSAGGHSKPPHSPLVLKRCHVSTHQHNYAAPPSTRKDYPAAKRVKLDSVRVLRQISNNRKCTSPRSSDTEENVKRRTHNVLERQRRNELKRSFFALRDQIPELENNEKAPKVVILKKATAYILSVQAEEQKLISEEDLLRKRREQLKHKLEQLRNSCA
# STAT3 SMM: STAT3 (human) binding | P40763 | Small molecule microarray, His-STAT3 binding, anti-His fluorescence | calls only | 17,000 compounds, 0.2% hits;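 active = compounds whose four printed spots each show fluorescence over background unusually high for their array block, chance value under 7%; compounds were printed on slides so no solution concentration is given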;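 note: about 2 pmol printed per array spot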
# ID4 binder: binders of human ID4 protein; small molecule microarray, Flag-ID4 binding, fluorescence F/B; calls only; 31,000 compounds, 1.2% hits; AID 624137;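 active = spot signal over background at p below 0.07 in all four prints; compounds were printed on slides so no solution concentration is given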;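 note: a binder raises fluorescence above local background on the spot; about 2 pmol printed per array spot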
# Target sequence (P47928 whole entry, looked up): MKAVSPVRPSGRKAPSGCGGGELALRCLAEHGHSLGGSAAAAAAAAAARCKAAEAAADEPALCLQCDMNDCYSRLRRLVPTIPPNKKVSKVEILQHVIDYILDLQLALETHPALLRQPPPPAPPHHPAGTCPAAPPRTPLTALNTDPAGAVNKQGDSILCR
# p53 mut binder: mutant p53 (human) binding; small molecule microarray binding, anti-GST fluorescence; calls only; 17,000 compounds, 0.4% hits;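 active = compounds whose four printed spots each glow above background more than chance allows, each with a p-value under 7%; compounds were printed on slides so no solution concentration is given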;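 note: about 2 pmol printed per array spot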
# Calls only; i = inactive; / = no result given; + = active, no number. These rows are one share of the data, so the mix of outcomes need not match the whole.
no.	canonical_smiles	c-Myc SMM	STAT3 SMM	ID4 binder	p53 mut binder
1	COC(=O)C(CC#Cc1ccc2c(c1)[C@]1(C(=O)N2)[C@H](C(=O)N2CCc3cc(OC)c(OC)cc3C2)[C@H]2C(=O)O[C@H](c3ccccc3)[C@H](c3ccccc3)N2[C@@H]1c1ccc(OCCO)cc1)C(=O)OC	i	i	i	i
2	Cc1ccc(S(=O)(=O)Nc2ccc3c(c2)C(=O)N([C@@H](C)CO)C[C@H](C)[C@H](CN(C)S(=O)(=O)c2cccs2)OCCCC[C@H](C)O3)cc1	i	i	/	i
3	O=S(=O)(N1CCOCC1)n1c(Cc2ccccc2)nc2ccccc21	i	i	i	i
4	C/C(=C\c1ccc(C(=O)O)cc1)c1ccc2c(c1)C(C)(C)CCC2(C)C	i	i	/	i
5	C[C@@H]1CN([C@H](C)CO)C(=O)Cc2cc(NC(=O)CCCN(C)C)ccc2O[C@@H]1CN(C)S(=O)(=O)c1cccs1	i	i	i	i
6	C[C@@H]1CN([C@@H](C)CO)C(=O)Cc2cc(NC(=O)Nc3cccc4ccccc34)ccc2O[C@@H]1CN(C)C(=O)Nc1cccc2ccccc12	i	i	i	i
7	CC(C)NC(=O)Nc1cccc2c1O[C@@H](CN(C)CC1CC1)[C@H](C)CN([C@H](C)CO)C2=O	i	i	/	i
8	C[C@@H]1CN([C@H](C)CO)C(=O)c2cccc(NC(=O)Nc3ccccc3)c2O[C@@H]1CN(C)Cc1ccncc1	i	i	/	i
9	C[C@@H]1CN([C@@H](C)CO)C(=O)Cc2cc(NS(C)(=O)=O)ccc2O[C@H]1CN(C)Cc1ccc(-c2ccccc2)cc1	i	i	i	i
10	CC(C)=C1C[C@@]2(CO)C(=CC1=O)CC[C@@H](O)[C@@H]2C	i	i	i	i
11	Cc1ccccc1OCc1nn2c(COc3ccccc3)nnc2s1	i	i	i	i
12	COc1ccc(S(=O)(=O)Nc2ccc3c(c2)C(=O)N([C@H](C)CO)C[C@H](C)[C@H](CN(C)S(=O)(=O)c2c(C)noc2C)O3)cc1	i	i	i	i
13	CC(=O)n1cc([C@H]2C=C(C(=O)N3CCCCCCC3)O[C@@H](OCc3ccc(CO)cc3)C2)c2ccccc21	i	i	i	i
14	Cc1noc(C)c1S(=O)(=O)Nc1ccc2c(c1)C(=O)N([C@@H](C)CO)C[C@@H](C)[C@H](CN(C)C(=O)CCC(F)(F)F)OCCCC[C@@H](C)O2	i	i	i	i
15	O=C(O)/C=C/c1ccccc1O[C@@H]1O[C@H](CO)[C@@H](O)[C@H](O)[C@H]1O	i	i	i	i
16	Cc1noc(C)c1NC(=O)Nc1ccc2c(c1)C(=O)N([C@@H](C)CO)C[C@@H](C)[C@H](CN(C)C)OCCCC[C@H](C)O2	i	i	i	i
17	COc1ccc(C#Cc2ccc3c(c2)[C@]2(C(=O)N3)[C@H](c3ccc(O)cc3)N3[C@H](c4ccccc4)[C@H](c4ccccc4)OC(=O)[C@H]3[C@@H]2C(N)=O)cc1	i	i	i	i
18	COc1cccc2cc(C(=O)NCc3ccccn3)c(=O)oc12	i	i	i	i
19	C[C@@H]1CN([C@@H](C)CO)C(=O)c2cc(NC(=O)Nc3ccc4c(c3)OCO4)ccc2O[C@@H](C)CCCCO[C@H]1CN(C)C(=O)c1ccccc1	i	i	i	i
20	C[C@@H]1CN([C@@H](C)CO)C(=O)c2cc(NC(=O)Nc3ccccc3)ccc2O[C@@H](C)CCCCO[C@@H]1CN(C)C(=O)Nc1ccccc1	i	i	i	i
21	C[C@@H]1CN([C@@H](C)CO)C(=O)c2cccc(NS(=O)(=O)c3cn(C)cn3)c2O[C@H]1CN(C)C(=O)Nc1ccc(C(F)(F)F)cc1	i	i	i	i
22	COc1ccc(C)cc1NC(=O)CN1C(=O)CN(c2ccccc2)C1=O	i	i	i	i
23	Cc1noc(C)c1NC(=O)N(C)C[C@@H]1OCCCC[C@@H](C)Oc2ccc(NC(=O)CCC(F)(F)F)cc2C(=O)N([C@@H](C)CO)C[C@H]1C	i	i	i	i
24	C[C@@H]1CN([C@H](C)CO)C(=O)c2cc(NC(=O)NC3CCCCC3)ccc2O[C@H]1CN(C)C(=O)Nc1ccc(F)cc1	i	i	i	i

# Next section, starting with the last 3 of the part before.
no.	canonical_smiles	c-Myc SMM	STAT3 SMM	ID4 binder	p53 mut binder
22	COc1ccc(C)cc1NC(=O)CN1C(=O)CN(c2ccccc2)C1=O	i	i	i	i
23	Cc1noc(C)c1NC(=O)N(C)C[C@@H]1OCCCC[C@@H](C)Oc2ccc(NC(=O)CCC(F)(F)F)cc2C(=O)N([C@@H](C)CO)C[C@H]1C	i	i	i	i
24	C[C@@H]1CN([C@H](C)CO)C(=O)c2cc(NC(=O)NC3CCCCC3)ccc2O[C@H]1CN(C)C(=O)Nc1ccc(F)cc1	i	i	i	i
25	CN(C)C(=O)[C@]1(Cc2ccccc2CN=[N+]=[N-])N=C(c2ccc(OCCCO)cc2)O[C@@H]1c1ccccc1	i	i	i	i
26	COc1ccc(CN(C)C[C@H]2Oc3ccc(NC(=O)Nc4ccc(OC)cc4)cc3CC(=O)N([C@H](C)CO)C[C@@H]2C)cc1	i	i	i	i
27	C[C@@H]1CN([C@H](C)CO)C(=O)Cc2cc(NC(=O)Nc3ccc4c(c3)OCO4)ccc2O[C@@H]1CN(C)Cc1ccc(-c2ccccc2)cc1	i	i	/	i
28	Cc1c(NC(=O)/C(C#N)=C/c2ccccc2Cl)c(=O)n(-c2ccccc2)n1C	i	i	+	i
29	O=C1c2ccccc2C(=O)N1CCc1nc2ccccc2c(=O)n1-c1nc2ccccc2s1	i	i	i	i
30	COc1ccc(S(=O)(=O)Nc2cccc3c2O[C@@H](CN(C)S(=O)(=O)c2cccs2)[C@@H](C)CN([C@H](C)CO)C3=O)cc1	i	i	i	i
31	C#CCNC(=O)C1=C[C@@H](C2CC2)C[C@@H](OCCCCO)O1	i	i	i	i
32	CCO[C@@H]1OC(C(=O)N2CCCC2)=C[C@H](c2ccccc2)[C@H]1CCCO	i	i	/	i
33	C[C@H](CO)N1C[C@H](C)[C@H](CN(C)C(=O)NC2CCCCC2)Oc2c(NS(C)(=O)=O)cccc2C1=O	i	i	i	i
34	CC(C)NC(=O)N(C)C[C@@H]1Oc2ccc(NC(=O)CCC(F)(F)F)cc2CC(=O)N([C@H](C)CO)C[C@H]1C	i	i	i	i
35	CCCC[C@H](O)[C@@H]1CC(OC)=CC(=O)O1	i	i	/	i
36	Cc1noc(C)c1NC(=O)Nc1cccc2c1O[C@H](CN(C)C(=O)NC1CCCCC1)[C@@H](C)CN([C@H](C)CO)C2=O	i	i	i	i
37	C[C@@H]1CN([C@H](C)CO)C(=O)c2cc(NC(=O)Nc3ccc4c(c3)OCO4)ccc2O[C@@H](C)CCCCO[C@@H]1CN(C)C(=O)CCC(F)(F)F	i	i	i	i
38	CC(C)CC1NC(=O)C(C)NC1=O (configuration not stated)	i	i	i	i
39	C[C@@H]1CN([C@@H](C)CO)C(=O)c2cccc(N(C)C)c2O[C@H]1CN(C)Cc1ccc(Cl)c(Cl)c1	i	i	i	i
40	CC(=O)Nc1sccc1C(=O)NCc1ccco1	i	i	i	i
41	O=C1C(=O)N(Cc2cccnc2)C(c2ccc(Br)cc2)C1C(=O)c1cccs1 (configuration not stated)	i	i	i	i
42	C[C@H]1CCCCO[C@@H](CN(C)C(=O)CCC(F)(F)F)[C@@H](C)CN([C@@H](C)CO)C(=O)c2cc(NS(=O)(=O)c3ccccc3)ccc2O1	i	i	i	i
43	C[C@H]1CN([C@@H](C)CO)C(=O)c2cc(NC(=O)Nc3ccc(F)cc3)ccc2O[C@H]1CN(C)Cc1ccc2c(c1)OCO2	i	i	i	i
44	Cn1c(=O)oc2cc(S(=O)(=O)NCCC(=O)O)ccc21	i	i	i	i
45	C=CCNC(=O)[C@H]1[C@@H]2C(=O)O[C@@H](c3ccccc3)[C@@H](c3ccccc3)N2[C@@H](c2ccc(OCCO)cc2)[C@]12C(=O)Nc1ccc(C#CCCO)cc12	i	i	i	i
46	C[C@H](CO)N1C[C@H](C)[C@H](CN(C)S(=O)(=O)c2ccccc2)Oc2ncc(C#Cc3ccc(C(F)(F)F)cc3)cc2C1=O	+	i	i	i
47	C[C@H](CO)N1C[C@H](C)[C@H](CN(C)C(=O)Nc2ccc(F)cc2)Oc2ccc(NC(=O)Cn3cnnn3)cc2CC1=O	i	i	i	i
48	CC(C)NC(=O)Nc1ccc2c(c1)CC(=O)N([C@H](C)CO)C[C@H](C)[C@@H](CN(C)S(C)(=O)=O)O2	i	i	/	i
49	Cn1c(Cn2nnc(-c3ccccc3)n2)nnc1SCC(N)=O	i	i	i	i
50	Cc1noc(C)c1NC(=O)Nc1ccc2c(c1)CC(=O)N([C@@H](C)CO)C[C@H](C)[C@@H](CN(C)S(=O)(=O)c1cn(C)cn1)O2	i	i	i	i
51	C[C@H](CO)N1C[C@H](C)[C@H](CN(C)Cc2ccc(-c3ccccc3)cc2)Oc2ccc(NC(=O)Cc3ccccc3)cc2C1=O	i	i	/	i
52	C[C@@H]1CN([C@@H](C)CO)C(=O)c2cc(NS(=O)(=O)c3cccs3)ccc2O[C@@H](C)CCCCO[C@H]1CN(C)Cc1ccccc1	i	i	i	i
53	C[C@@H]1CCCCO[C@@H](CN(C)Cc2ccc3c(c2)OCO3)[C@H](C)CN([C@@H](C)CO)C(=O)c2cc(NC(=O)CCCN(C)C)ccc2O1	i	i	i	i
54	COc1ccc(S(=O)(=O)Nc2ccc3c(c2)C(=O)N([C@H](C)CO)C[C@@H](C)[C@H](CN(C)S(=O)(=O)c2cccs2)O3)cc1	i	i	i	i
55	C[C@H]1CN([C@@H](C)CO)C(=O)c2cc(NC(=O)C3CC3)ccc2O[C@H]1CN(C)C	i	i	i	i
56	C[C@@H]1CN([C@H](C)CO)C(=O)c2cccc(NC(=O)c3ccncc3)c2O[C@H]1CN(C)Cc1ccc2c(c1)OCO2	i	i	i	i

# Rewritten as labelled records: part of the list above
9: C[C@@H]1CN([C@@H](C)CO)C(=O)Cc2cc(NS(C)(=O)=O)ccc2O[C@H]1CN(C)Cc1ccc(-c2ccccc2)cc1
  c-Myc SMM: i
  STAT3 SMM: i
  ID4 binder: i
  p53 mut binder: i
34: CC(C)NC(=O)N(C)C[C@@H]1Oc2ccc(NC(=O)CCC(F)(F)F)cc2CC(=O)N([C@H](C)CO)C[C@H]1C
  c-Myc SMM: i
  STAT3 SMM: i
  ID4 binder: i
  p53 mut binder: i
14: Cc1noc(C)c1S(=O)(=O)Nc1ccc2c(c1)C(=O)N([C@@H](C)CO)C[C@@H](C)[C@H](CN(C)C(=O)CCC(F)(F)F)OCCCC[C@@H](C)O2
  c-Myc SMM: i
  STAT3 SMM: i
  ID4 binder: i
  p53 mut binder: i

# (continued)
no.	canonical_smiles	c-Myc SMM	STAT3 SMM	ID4 binder	p53 mut binder
57	C[C@@H]1CN([C@H](C)CO)C(=O)c2cccc(NC(=O)NC3CCCCC3)c2O[C@H]1CN(C)Cc1ccc(C(=O)O)cc1	i	i	i	i
58	CC(C)NC(=O)Nc1ccc2c(c1)C(=O)N([C@@H](C)CO)C[C@H](C)[C@@H](CN(C)S(=O)(=O)c1ccccc1)OCCCC[C@@H](C)O2	+	i	i	i
59	COC(=O)c1cc(C)sc1NC(=O)COc1ccccc1	i	i	i	i
60	COC(=O)C1c2c(oc3cc(CO)cc(O)c3c2=O)C=CC1O (configuration not stated)	i	i	/	i
61	C[C@H](CO)N1C[C@H](C)[C@@H](CN(C)C)Oc2ccc(NC(=O)Nc3ccc(F)cc3)cc2C1=O	i	i	i	i
62	Cc1ccc(OC(=O)N(C)C[C@H]2OCc3cn(nn3)CCCC(=O)N([C@H](C)CO)C[C@H]2C)cc1	i	i	i	i
63	C[C@H]1CN([C@@H](C)CO)C(=O)c2cccc(N(C)C)c2O[C@H]1CN(C)S(C)(=O)=O	i	i	/	i
64	C[C@H](CO)N1C[C@H](C)[C@H](CN(C)S(=O)(=O)c2ccccc2)Oc2ccc(NC(=O)NC3CCCCC3)cc2CC1=O	i	i	i	i
65	COc1ccc(S(=O)(=O)N(C)C[C@H]2Oc3ccc(NS(=O)(=O)c4cn(C)cn4)cc3CC(=O)N([C@H](C)CO)C[C@H]2C)cc1	i	i	i	i
66	CCN1CCN(C(=O)C2CCCN2S(=O)(=O)c2cccc3nsnc23)CC1 (configuration not stated)	i	i	i	i
67	C[C@@H]1CN([C@H](C)CO)C(=O)c2cc(NC(=O)Nc3ccc(C(F)(F)F)cc3)ccc2O[C@@H](C)CCCCO[C@@H]1CN(C)Cc1ccc(C(=O)O)cc1	i	i	/	i
68	Cc1noc(C)c1NC(=O)Nc1ccc2c(c1)CC(=O)N([C@H](C)CO)C[C@@H](C)[C@@H](CN(C)C(=O)NC(C)C)O2	i	i	i	i
69	C[C@H]1CN([C@@H](C)CO)C(=O)c2cc(NS(=O)(=O)c3ccccc3)ccc2O[C@@H]1CN(C)C	i	i	i	i
70	C[C@H](CO)N1C[C@H](C)[C@@H](CN(C)S(=O)(=O)c2ccccc2)OCCCC[C@H](C)Oc2ccc(NS(=O)(=O)c3cn(C)cn3)cc2C1=O	i	i	/	i
71	CC(=O)Nc1ccc(NC(=O)CNS(=O)(=O)c2c(C)cc(C)cc2C)cc1	i	i	+	i
72	C[C@@H]1CN([C@H](C)CO)C(=O)c2cc(NC(=O)Cc3ccccc3)ccc2O[C@@H](C)CCCCO[C@H]1CN(C)C(=O)CCC(F)(F)F	i	i	i	i

# Screens: PubChem BioAssay, Broad Institute
